Compound activity (PubChem)
TAR Tat displ: TAR RNA-Tat peptide displacers, HIV-1, primary screen, biochemical, FRET, FAM/TAMRA-labeled Tat; AID 1259389, 2018; HIV-1 TAR RNA, Tat peptide displacement FRET; hits give high values; z-score (test concentration not listed); actives 0.6% (n = 100,000);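 further: score is relative to mean and SD of negative controls; some compounds called inactive have numbers as strong as hits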
CDC25B CDK2 inh: primary biochemical HTRF screen for blockers of M-phase inducer phosphatase 2 binding to CDK2/cyclin A; actives 0.72% (n = 94,000); P30305+P24941; z-score (no concentration beside the values); HTRF CDC25B-CDK2/CyclinA binding, anti-His/anti-Flag; hits give high values; AID 1259370, 2018;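 further: score is relative to mean and SD of negative controls; strong numbers were not always called active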
The depositor's hits bear a star; · = not tested or not shown.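 How the source made its calls: active means z-score from 3 up in half or more of its runs; inactive means the rest.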

SMILES	TAR Tat displ	CDC25B CDK2 inh
Cc1onc(-c2c(Cl)cccc2Cl)c1-c1nnc(NC(=O)c2ccco2)s1	·	-0.84
O=C(Nc1sc2c(c1C(=O)NCc1cccnc1)CCCC2)c1csnn1	1.3	-0.4
Cc1cc(C)c2c(=O)cc(CSc3nnc(CC(C)C)n3C)[nH]c2c1	0.06	·
CC(NC(=O)c1ccc(Cl)cc1)c1nc(-c2ccc(C(C)(C)C)cc2)no1 (stereo unspecified)	2.3	-0.99
O=C(CCc1nnc2ccc(N3CCCC3)nn12)N1CC=C(c2ccccc2)CC1	-0.29	·
O=C(COc1ccccc1)ON1C(=O)CCC1=O	·	-1.4
CCOc1ccc2nc(SCCCOc3ccccc3)[nH]c2c1	-0.62	0.37
N#Cc1ccc(-c2c(N)oc(-c3cccs3)c2C#N)cc1	·	-1.6
Cc1nn(CC(=O)N2CCc3ccccc32)c(=O)c2nn(-c3ccccc3)c(C)c12	-0.44	·
Cc1cccc(C(=O)Nc2c(C)nc3ccc(Cl)cn3c2=O)c1	0.76	·
Nc1n[nH]c(=O)c2cc(-c3ccc(Cl)cc3)[nH]c(=O)c12	·	-2
COc1ccc(C2=CC(c3ccccc3Cl)n3nnnc3N2)cc1 (stereo unspecified)	-0.5	·
O=C1CCCC2=C1C(c1cccnc1)n1nc(SCc3ccccc3F)nc1N2 (stereo unspecified)	0.4	0.85
O=S1(=O)C[C@H](NCc2cccnc2)[C@@H](S(=O)(=O)c2ccccc2)C1	0.86	-2.3
CC1=C(C(=O)N2CCOCC2)C2(CCC(C)CC2)OC1=O (stereo unspecified)	·	-0.5
Clc1ccccc1CNc1nnc(Cc2ccncc2)c2ccccc12	1.4	-1.5
COc1ccc(S(=O)(=O)Nc2cc(N3CCCS3(=O)=O)ccc2OC)cc1F	-0.88	·
Cn1cnc(S(=O)(=O)N2CCN(C3CCCCC3)CC2)c1	1.4	·
COCCn1c(N2CCCC2)nc2c1c(=O)n(C)c(=O)n2C	0.88	-0.77
O=C(Cn1ncc2c([nH]c3ccccc32)c1=O)N(Cc1ccco1)C1CCCC1	1.4	·

Entries listed so far that contain sulfur, in the order listed:
SMILES	TAR Tat displ	CDC25B CDK2 inh
Cc1onc(-c2c(Cl)cccc2Cl)c1-c1nnc(NC(=O)c2ccco2)s1	·	-0.84
O=C(Nc1sc2c(c1C(=O)NCc1cccnc1)CCCC2)c1csnn1	1.3	-0.4
Cc1cc(C)c2c(=O)cc(CSc3nnc(CC(C)C)n3C)[nH]c2c1	0.06	·
CCOc1ccc2nc(SCCCOc3ccccc3)[nH]c2c1	-0.62	0.37
N#Cc1ccc(-c2c(N)oc(-c3cccs3)c2C#N)cc1	·	-1.6
O=C1CCCC2=C1C(c1cccnc1)n1nc(SCc3ccccc3F)nc1N2 (stereo unspecified)	0.4	0.85
O=S1(=O)C[C@H](NCc2cccnc2)[C@@H](S(=O)(=O)c2ccccc2)C1	0.86	-2.3
COc1ccc(S(=O)(=O)Nc2cc(N3CCCS3(=O)=O)ccc2OC)cc1F	-0.88	·
Cn1cnc(S(=O)(=O)N2CCN(C3CCCCC3)CC2)c1	1.4	·

New compounds follow.
SMILES	TAR Tat displ	CDC25B CDK2 inh
CS(=O)(=O)c1ccc(C(=O)Nc2nc(-c3nc4ccccc4s3)cs2)cc1	1.7	·
COC(=O)c1cc(S(=O)(=O)NCc2cccnc2)cn1C	-0.39	-1.5
CC(C)(C)C1=NN(c2ccccc2)C(=O)C1	·	-2.1
COc1ccc(N(C)C(=O)Cc2noc3ccccc23)c(OC)c1	1	-0.71
CCCCCOC(=O)c1sc2nc(N3CCOCC3)c3c(c2c1N)CC(C)(C)OC3	·	-0.22
O=[N+]([O-])c1ccc(N2CCCCC2)nc1N1CCCCC1	·	-0.95
O=C(NCc1ccc2c(c1)OCO2)c1cc(-c2ccccc2)nc2ccccc12	·	-1.8
Cc1nc(-c2sc3ccc(Cl)cc3c2C)cs1	·	-1.4
Cc1nc2nc[nH]n2c(=O)c1CCC(=O)Nc1ccc(Br)cc1	1.6	-1.9
O=C(c1cccn1-c1nnc(N2CCCCC2)s1)N1CCOCC1	0.97	·
c1ccc(-c2nc(Oc3cccnc3)c3oc4ccccc4c3n2)cc1	0.57	·
CC1=C(C(=O)OCCOC(C)C)C(c2ccccc2Br)C2=C(CC(C)(C)CC2=O)N1 (stereo unspecified)	0.93	-1.9
Cc1ccc(C2(CC(=O)O)CCOC(C)(C)C2)cc1 (stereo unspecified)	-0.02	-0.62
CC1(C)N=C(c2ccc(F)cc2)C(=O)N1	·	0.18
c1ccc(CNCc2cccn2-c2nnc(N3CCOCC3)s2)cc1	0.07	·
CCCNc1nc(NCc2ccc(C)cc2)c2cnn(C)c2n1	1.6	·
Cc1cc(C)nc(-n2nc(C)c3c2NC(=O)CC3c2cc(F)ccc2F)n1 (stereo unspecified)	-0.19	-1.5
CCN1CCCC1CNc1nc2ccc(Cl)cc2n2cnnc12 (stereo unspecified)	0.83	0.19
Nc1c(C(=O)Nc2ccccc2)oc2ccccc12	-0.17	-0.01
COc1ccccc1N1CCN(C2CC(=O)N(c3ccc(F)cc3)C2=O)CC1 (stereo unspecified)	-0.88	0.49

2 of these compounds in another layout:
Clc1ccccc1CNc1nnc(Cc2ccncc2)c2ccccc12
  TAR Tat displ: 1.4	CDC25B CDK2 inh: -1.5
COc1ccc(S(=O)(=O)Nc2cc(N3CCCS3(=O)=O)ccc2OC)cc1F
  TAR Tat displ: -0.88	CDC25B CDK2 inh: ·

(listing goes on)
SMILES	TAR Tat displ	CDC25B CDK2 inh
CC1(C)Cc2c(sc3c2c(=O)n(CC(=O)O)c(=O)n3Cc2ccccc2Cl)CO1	0.96	0.79
COC(=O)c1sc(NC(=O)CSc2cn[nH]c(=O)n2)nc1C	0.16	-1.1
CN1C(=O)C(C)(C)c2cc(S(=O)(=O)N(C)CC(=O)NCC3CCCO3)ccc21 (stereo unspecified)	0.94	·
COc1cccc(/C=C2\N=C(SC)SC2=O)c1	-0.68	-2
O=C(CC1(O)C(=O)N(CCc2ccccc2)c2ccccc21)c1ccc(Br)cc1 (stereo unspecified)	-1.7	3.2
O=C(CSc1nnnn1-c1ccccc1F)Nc1ccc2c(c1)OCO2	0.85	-1.9
Nc1c(C(=O)N/N=C/c2cccnc2)oc2nc(-c3ccccc3)cc(-c3ccco3)c12	·	-1.8
C#CCSc1nc2c(c(=O)[nH]1)C(c1ccc(OC(C)C)cc1)CC(=O)N2 (stereo unspecified)	0.57	-3.5
CCCSc1nnc2c(n1)OC(/C=C/c1ccc([N+](=O)[O-])o1)Nc1ccccc1-2 (stereo unspecified)	1	-0.99
NC(CCc1ccccc1Cl)c1ccc2c(c1)OCCO2 (stereo unspecified)	·	-2.4
Cc1ccc(Nc2c([N+](=O)[O-])sc3ccccc23)cc1	-0.73	-0.98
CCOC(=O)c1oc2ccc(S(=O)(=O)Nc3ccc4c(c3)COC4=O)cc2c1C	0.65	-0.13
COc1ccc(NC(=O)Nc2c(C)n(C)n(-c3ccccc3)c2=O)c(OC)c1	-0.3	-0.54
CN(Cc1ccccc1)C(=O)CSc1nc(-c2ccccc2)nc2cc(=O)[nH]n12	10*	·
Cc1cc(C)c(S(=O)(=O)NCc2cn3c(C)csc3n2)cc1C	·	-2
Cc1cc(N2CCN(c3ccccc3)CC2)n2nc(-c3ccccc3)nc2n1	0.94	-1.5
CCc1ccc(N2C(=O)C3CCCN3C2=S)cc1 (stereo unspecified)	·	-2.1
CC(C)NC(=O)c1c(-c2ccc(Cl)cc2)nc2n1CCS2(=O)=O	-0.7	-0.03
Cc1ccc(-c2noc(-c3ccco3)n2)cc1	-0.48	-1
CCOC(=O)C1CCN(C(=O)Cn2nc(C)n3c(cc4sccc43)c2=O)CC1	·	-2.7
Cc1nc2c(c(C)c1CCC(=O)NCCc1cnc[nH]1)c(=O)n(C)c(=O)n2C	0.72	-1.7
c1ccc(CNc2nc3ccccc3n3nnnc23)cc1	1.6	-2.5
COC(=O)COc1nc(C)nc2c1sc1nc(C)cc(C)c12	·	0.96
CS/C(=N/S(=O)(=O)c1c(C)noc1C)NNC(=O)Nc1ccc(Cl)cc1	·	-5.2
Clc1ccccc1CN1CCc2nc(Nc3ccc4c(c3)OCCO4)ncc2C1	1.7	·
Cc1cc(C)cc(NC(=O)c2cnc3sc(N4CCCC4)nn3c2=O)c1	1.2	·
O=C1c2cccnc2C(Nc2ccccc2F)N1Cc1ccco1 (stereo unspecified)	1.4	·
CCn1c(C)c(/C=C/c2nc3ccccc3c(=O)[nH]2)c2ccccc21	-3.4	-1.1
CC(=O)N1c2ccccc2CC1C(=O)NC1CCCC1 (stereo unspecified)	0.01	·
CCN1CCN(CCCNC(=O)CCC(=O)N2CC(C)Oc3ccccc32)CC1 (stereo unspecified)	-0.22	-1.1
O=S(=O)(NCc1ccccn1)c1cc(OCC(F)(F)F)ccc1OCC(F)(F)F	·	-2.2
CCn1cc2c(n1)-c1c(oc(C(=O)Nc3c(C)cc(C)cc3C)c1C)CC2	1.1	·
COc1cc(OC)c(Nc2cnn(-c3nc4ccccc4s3)c(=O)c2Cl)cc1Cl	-0.37	-1.5
O=C(Nc1c(C(=O)Nc2cccc(F)c2)oc2ccccc12)c1cc2ccccc2o1	1.2	-1
CC(C)(C)c1ccc(OCc2nnc3n2CCCCC3)cc1	1.1	·
Cc1nn2c(=O)cc(CSCC(=O)Nc3ccc(F)cc3)nc2s1	0.27	·
CCn1nc(C)cc1C(=O)OCC(=O)c1ccc(Cl)cc1	·	-2.4
Cc1cc(C)c2c(N)c(C(=O)Nc3cccc4cccnc34)sc2n1	·	1.1
COc1cc2nc(N(C)C)nc(N)c2cc1OC	·	-0.21
CC(C)CN1CN(Cc2ccccc2)CNC1=S	·	1.3

No new results follow: entries from further up.
SMILES	TAR Tat displ	CDC25B CDK2 inh
COc1cc2nc(N(C)C)nc(N)c2cc1OC	·	-0.21
CC(C)CN1CN(Cc2ccccc2)CNC1=S	·	1.3

Carrying on:
SMILES	TAR Tat displ	CDC25B CDK2 inh
O=S1(=O)CCN(CC2COc3ccccc3O2)CC1 (stereo unspecified)	·	-3.8
Cc1ccc(CNc2nc(Nc3ccc(Cl)cc3)c3cnn(C)c3n2)cc1	-0.47	·
COCCNC(=O)c1ccc(Cc2c(C)noc2C)o1	1.4	·
CCCc1cc(=O)n2nc(N(C)CC(=O)NCCN3CCOCC3)sc2n1	2.2	0.7
CC1(C)Cc2nc3sc(C(=O)O)c(N)c3cc2CS1	-5.6	-1.5
c1cncc(-c2nn3c(-c4ccncc4)nnc3s2)c1	0.12	-0.75
Cc1oc(C(N)=O)nc1-c1ccccc1	·	-1.1
Cc1ccc(OCc2cc(=O)n3ccsc3n2)cc1	2.5	-1.4
Fc1cccc(Cn2c(-c3cncs3)nc3ccccc32)c1	0.58	1.9
CCC(C)NC(=O)c1cc2c(s1)-c1ccccc1SC2 (stereo unspecified)	1	1.8
CCc1ccc2ncc(C#N)c(OC)c2c1	2.9	-0.99
O=C(Cn1ccc2cc(S(=O)(=O)N3CCCC3)ccc21)NC1CC1	0.17	·
O=S(=O)(NNc1c(Cl)cncc1Cl)c1ccc2c(c1)OCC2	·	-1.6
CCc1ccc(S(=O)(=O)Nc2c(-n3cnnc3)nn(C)c2C)cc1	1.5	-2.4
O=C(CN1C(=O)CSc2ccc(S(=O)(=O)N3CCOCC3)cc21)N1CCCCCC1	·	-2.1
O=C(NC1CCCC1)c1ccc(CS(=O)c2ccccc2Cl)o1 (stereo unspecified)	0.9	·
CCS(=O)(=O)c1oc(-c2ccc(F)cc2)nc1S(=O)(=O)c1ccccc1	0.37	-4.1
CCOC(=O)N1CCN(C(=O)C2c3ccccc3C(=O)N3CCc4cc(OC)c(OC)cc4C23)CC1 (stereo unspecified)	0.43	-1.2
Cc1ccc(-n2ncc3c(N4CCC(C)CC4)ncnc32)cc1	2.4	·
CCC(C)N1C(=O)c2ccncc2C1=O (stereo unspecified)	0.47	·

Reformatted as a markdown table: part of the list above.
| mol | TAR Tat displ | CDC25B CDK2 inh |
| --- | --- | --- |
| Cc1ccc(-n2ncc3c(N4CCC(C)CC4)ncnc32)cc1 | 2.4 | · |
| O=S(=O)(NNc1c(Cl)cncc1Cl)c1ccc2c(c1)OCC2 | · | -1.6 |

More compounds follow.
SMILES	TAR Tat displ	CDC25B CDK2 inh
O=C(CCc1nnc2ccc(N3CCCCC3)nn12)NCc1ccco1	0.09	·
CCCC1=NN(C(=O)c2ccco2)C(O)(C(F)(F)F)C1 (stereo unspecified)	·	0.25
Clc1nc2c(-c3ccccc3)nnn2c2ccccc12	-0.62	-4.8
CCCCC(=O)n1nc(-c2ccc(C)c(C)c2)nc1N	0.17	-0.88
COc1cccc(NC(=O)Nc2nnc(-c3ccncc3)s2)c1	·	2.1
CCC(CC)C(=O)Nc1noc2ccccc12	1.2	-0.46
CCc1nn2c(=O)cc(CSc3n[nH]c(N)n3)nc2s1	1.3	·
CC1CCC(NC(=O)c2cnn3c4c(cnc23)CCCC4)CC1 (stereo unspecified)	-0.33	·
CN1C(=O)C(C)(C)c2cc(S(=O)(=O)N(C)CC(=O)N3CCCC3)ccc21	1.3	·
Nc1ccc(C(=O)O)c2c(C(=O)O)cccc12	·	1.6
Cc1nc2c(C)cccn2c(=O)c1Cc1nnc(SCC(=O)Nc2ccccc2F)n1C	0.63	-0.55
Cc1nnc(N2C(=O)C(=O)/C(=C(/O)c3ccc(Cl)cc3)C2c2ccc(C(C)C)cc2)s1 (stereo unspecified)	·	0.43
CCOC(=O)c1c(S(=O)(=O)Nc2ccc3c(c2)OCCO3)c(C)n(C)c1C	0.72	·
C(=C\c1ccccc1)/CNCc1cccnc1	-0.36	-0.31
CCC(=O)Nc1nc2ccc(Cl)cc2o1	-0.77	·
COc1ccc(Cc2nnc3c4cnn(-c5ccccc5)c4ncn23)cc1OC	-0.3	1.1
CCOC(=O)c1c(C)[nH]c(C)c1S(=O)(=O)N1CCCCC1	0.79	·
Cc1nc2nc(CO)[nH]n2c(=O)c1Cc1ccccc1	0.55	0.74
CCSCCOC(=O)C1=C(C)NC2=C(C(=O)CC(c3cccs3)C2)C1c1ccc(O)c(OC)c1 (stereo unspecified)	0.86	-2.6
